Screens (PubChem BioAssay)
MLL AF4-AF9 inh – inhibitors of AF4 peptide binding to AF9, primary screen, biochemical, AlphaScreen, biotin-AF4 peptide, FLAG-AF9, single point | Protein AF-9 (Homo sapiens), P42568 | inhibition, % at 10 µM | actives 0.47% (n = 350,000);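 active = every replicate reaching a set inhibition limit, whatever the replicate mean, cut at about 25% in these data; inconclusive = mean inhibition reaches that limit but some replicates miss it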;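 also: 0% = plate neutral control median and 100% = total signal loss; the record names both 10 and 1 µM as test concentration; the first replicate is given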
Target sequence (P42568 whole entry, looked up): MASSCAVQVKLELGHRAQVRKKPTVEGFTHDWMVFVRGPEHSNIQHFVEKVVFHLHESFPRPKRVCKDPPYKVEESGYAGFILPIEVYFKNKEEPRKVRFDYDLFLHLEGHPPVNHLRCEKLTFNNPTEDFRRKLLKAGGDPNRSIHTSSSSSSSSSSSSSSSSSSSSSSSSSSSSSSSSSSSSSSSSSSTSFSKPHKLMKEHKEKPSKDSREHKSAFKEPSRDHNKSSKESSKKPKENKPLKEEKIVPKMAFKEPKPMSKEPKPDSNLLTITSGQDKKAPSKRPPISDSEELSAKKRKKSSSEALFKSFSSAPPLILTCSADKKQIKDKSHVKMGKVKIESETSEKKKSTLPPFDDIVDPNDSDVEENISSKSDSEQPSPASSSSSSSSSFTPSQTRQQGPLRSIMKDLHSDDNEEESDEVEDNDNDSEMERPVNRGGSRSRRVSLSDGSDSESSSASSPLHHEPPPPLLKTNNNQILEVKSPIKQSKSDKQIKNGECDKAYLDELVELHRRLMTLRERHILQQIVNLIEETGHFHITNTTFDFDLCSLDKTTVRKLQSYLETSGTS
HNF4A DNA FP – change in binding of human HNF4A to DNA, primary screen, biochemical, fluorescence polarization, FITC-DNA. Hepatocyte nuclear factor 4-alpha (Homo sapiens), P41235. 1 h. activity change, % at 10 µM. actives 0.3% (n = 360,000). AID 1224865, 2016; in the data active = activity change above about 30%, passing the limit was not always enough;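 also: controls were the assay level and a saturating level of protein; the project sought stronger binding though the title names inhibitors; some compounds called inactive have numbers as strong as hits; positive values seem to mean higher polarization but the record does not say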
FGF22 binding – binders of human FGF22 protein, primary screen, FGF22 synaptogenesis inhibitor project, biophysical, thermal shift, single point. Fibroblast growth factor 22 (Homo sapiens), Q9HCT0. recombinant FGF22 thermal shift, SYPRO orange fluorescence; percent of sucrose octasulfate shift, DMSO zero. calls only at 9.99 µM. actives 1.5% (n = 340,000);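 active = melting point raised past a set limit in the mean and every replicate; inconclusive = no clear call; three in four hits are not shown here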
Target sequence (Q9HCT0 whole entry, looked up): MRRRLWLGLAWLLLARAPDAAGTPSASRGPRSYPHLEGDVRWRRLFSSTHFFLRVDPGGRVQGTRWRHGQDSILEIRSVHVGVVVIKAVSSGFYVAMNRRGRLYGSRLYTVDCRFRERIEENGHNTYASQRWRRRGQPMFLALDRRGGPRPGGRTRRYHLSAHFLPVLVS
Ecoli rRNA inh – reduced GFP signal of wild-type E. coli, primary screen, bacterial rRNA inhibitor project, GFP/RFP fluorescence, OD600, single point | AID 720706, 2013 | actives 1.6% (n = 350,000) | GFP signal change (wild-type ribosome), % (concentration not given with the values) | E. coli WT GFP vs humanized-ribosome RFP mutants, 24 h; active compounds read low; DMSO median 0, no signal -100;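 active = significant combined selectivity score with lowered wild-type GFP, culture density cut under 30%, mutant RFP and density less affected; inactive = any of these conditions unmet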; also: one replicate is shown; some compounds called inactive have numbers as strong as hits
E coli growth – E. coli growth inhibition, primary screen, OD600; OD600 absorbance (test concentration not listed); Escherichia coli growth, 23 h; active compounds read low; actives 0.21% (n = 330,000); AID 1053175, 2014;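 active = OD600 absorbance below the run mean of sample wells minus 3.6 SD, in any replicate, cut at about 0.56 in these data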;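 also: stock transfer was 300 nL into about 60 µL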
ALR inh – inhibitors of human ALR sulfhydryl oxidase, primary screen, biochemical, H2O2 detection, HRP-luminol luminescence, single point | purified ALR, DTT oxidation | inhibition, % (concentration not given with the values) | actives 3.8% (n = 290,000);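 active = mean and each replicate at 75% or more; inconclusive = only one of the two met; inactive = neither met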;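 also: stock transfer was 7.5 nL into about 7.5 µL; 0% = neutral wells and 100% = wells with inactivated enzyme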
Target sequence (P55789 whole entry, looked up): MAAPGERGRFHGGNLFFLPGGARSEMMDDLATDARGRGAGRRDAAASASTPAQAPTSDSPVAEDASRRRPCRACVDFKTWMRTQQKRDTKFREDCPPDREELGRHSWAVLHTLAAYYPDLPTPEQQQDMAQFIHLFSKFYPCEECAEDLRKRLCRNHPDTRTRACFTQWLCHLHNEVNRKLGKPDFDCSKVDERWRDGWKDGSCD
Vif TR-FRET – inhibitors of Vif binding to APOBEC3G peptide, primary screen, biochemical, TR-FRET, GST-Vif 1-94, biotin-A3G peptide, dose response retest (AID 1117319). actives 0.57% (n = 260,000). Virion infectivity factor (Human immunodeficiency virus type 1 group M subtype B (isolate …. TR-FRET GST-Vif / biotin-A3G peptide binding; higher % means a stronger effect; test concentration not given here; strong numbers were not always called active. inhibition, %, or IC50 in µM where a hit was titrated;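 active = above the screen mean plus three standard deviations and confirmed in dose response; inconclusive = results disagree or hit not tested in dose response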;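 also: Vif residues 1-94 fused to GST binding biotinylated APOBEC3G peptide 110-148; 0% = full assay without inhibitor and 100% = GST in place of GST-Vif; retest series ran down from 100 µM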
Ecoli rRNA inh OD600 – second read-out of Ecoli rRNA inh, no call of its own (marks repeat the call); OD600 change, %; measured here: OD600 growth;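 optical density of the mix in the first replicate; 0 = DMSO median and -100 = no signal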
Ecoli rRNA inh RFP – further read-out of Ecoli rRNA inh, marked with its call; RFP signal change, %; measured here: RFP humanized mutant strains;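 first replicate; 0 = DMSO median and -100 = no signal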
Active calls of the source: *; i = inactive; ? = inconclusive; / = no result given. The list is partial; the hit share may differ from the screen's.

Structure | MLL AF4-AF9 inh | HNF4A DNA FP | FGF22 binding | Ecoli rRNA inh | Ecoli rRNA inh OD600 | Ecoli rRNA inh RFP | E coli growth | ALR inh | Vif TR-FRET
COc1cc(CCC(=O)OCc2ccccc2C#N)cc(OC)c1OC | -2.9 | 1.5 | i | 0 | -6 | -1.8 | 0.64 | -16 | /
Cc1ncc(CN2CCC(CO)(CCOc3ccccc3)CC2)s1 | -34 | -0.2 | i | 12 | 11 | 2.5 | 0.71 | / | 3%
O=Cc1ccccc1Oc1ccccc1 | -3.3 | -1.4 | / | / | / | / | 0.75 | -30 | 10%
COc1ccc(-c2csc(C)n2)cc1Br | -0.2 | -4.7 | i | -29* | -12* | 2.3* | 0.69 | / | -5%
COc1ccc(CCNC(=O)[C@@H](NC(=O)c2ccccc2F)C(C)C)cc1OC | 1.3 | -0.9 | i | 4 | 6 | 0.2 | 0.69 | 14 | -3%
Cc1ccc(S(=O)(=O)Nc2ccc3c(c2)C(=O)N([C@@H](C)CO)C[C@H](C)[C@@H](CN(C)C(=O)Nc2cccc4ccccc24)OCCCC[C@H](C)O3)cc1 | -3.3 | / | i | 0 | 6 | -0.1 | / | / | /
O=C(O)C1C2C=CC(O2)C1C(=O)NCCc1cccc(Cl)c1 (centres undefined) | -2.2 | -1.4 | i | 7 | 4 | -0.8 | 0.65 | 5 | -5%
CN1CCN(C(=S)NC(=O)c2ccc(S(=O)(=O)N3CCOCC3)cc2)CC1 | -2.8 | 7.2 | i | 9 | 6 | -1.1 | 0.66 | -11 | /
C[C@H](CO)N1C[C@H](C)[C@H](CN(C)CC2CC2)Oc2ccc(NC(=O)Cc3ccccc3)cc2C1=O | 3.3 | / | i | -2 | -2 | 0.9 | / | / | /
O=C(CCCN1C(=O)c2ccccc2C1=O)Oc1ccc(Cl)cc1 | / | 1.3 | / | / | / | / | 0.7 | -4 | 29%
CC(NCc1ccc2c(c1)OCO2)c1ccccc1 (centres undefined) | -0.8 | 3.6 | i | 4 | 8 | 0.2 | 0.7 | -14 | /
CC(=N/O)/C(=N\O)c1ccc(C)o1 | / | 1.8 | / | / | / | / | / | -19 | 3%
COc1ccc(NC(C)=O)c2nc(C)c(C)nc12 | / | -1.8 | / | / | / | / | 0.67 | -4 | 15%
C[C@H](CO)N1C[C@H](C)[C@H](CN(C)S(=O)(=O)c2ccc(F)cc2)Oc2ccc(NS(=O)(=O)c3cccs3)cc2C1=O | 1.0 | / | i | 1 | -3 | 2.9 | / | / | /
CCN(CC)C(=O)Cn1cc(C(=O)C(=O)NCCc2ccccc2)c2ccccc21 | -0.1 | 3.3 | i | -8 | -8 | 0.9 | 0.64 | -2 | 4%

(cont.)
Structure | MLL AF4-AF9 inh | HNF4A DNA FP | FGF22 binding | Ecoli rRNA inh | Ecoli rRNA inh OD600 | Ecoli rRNA inh RFP | E coli growth | ALR inh | Vif TR-FRET
Cc1cccc(NCc2nc3ccccc3n2C)c1 | / | 0.5 | / | / | / | / | 0.65 | -1 | 14%
COc1ccc(CCN2CC(C(=O)NCCN3CCCC3=O)CCC2=O)cc1 (centres undefined) | -2.1 | 2.6 | i | 12 | 17 | 0.5 | 0.69 | -2 | 3%
CCCc1ccc2oc(C(=O)N3CCN(CCC(N)=O)CC3)c(C)c2c1 | -13 | -3.7 | i | -3 | -1 | 2.3 | 0.72 | 0 | -7%
Oc1ccc(-c2csc(Nc3ncccn3)n2)cc1O | 7.1 | 2.9 | i | -30* | -22* | -10* | 0.69 | / | ?
Cn1nnnc1SCC(=O)Nc1ccccc1Cl | / | -1.2 | / | / | / | / | 0.69 | 0 | -3%
Cc1cccc(C)c1NC(=O)CS(=O)CC(=O)NCC1OCCc2ccccc21 (centres undefined) | -1.0 | -2.1 | i | -7 | -6 | -0.6 | 0.67 | -18 | 0%
Cc1cccc(C(CC(=O)N2CCCCC2)c2ccccc2)c1O (centres undefined) | 6.2 | 2.4 | i | -9 | -5 | -0.6 | 0.71 | 37 | /
COc1ccc(C(=O)N(C)CC2CCN(CCc3cccc(C(F)(F)F)c3)CC2)cc1C | 7.6 | 0.7 | i | -5 | -19 | 20 | 0.67 | -10 | /
O=C(Nc1cc(S(=O)(=O)N2CCOCC2)ccc1OCC(F)(F)F)c1ccc(N2CCCC2=O)cc1 | 6.0 | 0.8 | i | 9 | 14 | 0.7 | 0.7 | -3 | 0%
CCOc1cc2[nH]c(=O)n(CCCCCC(=O)NC3CCCC3)c(=O)c2cc1OCC | -0.6 | 1.6 | i | 6 | -3 | 3.0 | 0.65 | 4 | /
COc1ccc(CNS(=O)(=O)c2ccc(-c3cc(C)no3)cc2)cc1 | -3.2 | 5.7 | i | 1 | 0 | 1.4 | 0.71 | -11 | -7%
Cc1nc2c(C)cccc2c2c1CCS2 | -3.4 | 3.9 | i | 5 | 11 | 1.0 | 0.62 | -7 | 3%
COc1ccc(CCN(C)c2ccc(S(=O)(=O)N3CCCC3)cn2)cc1OC | -3.1 | 2.2 | i | -5 | -7 | 2.4 | 0.66 | 1 | /
COc1ccc(-c2nnn(-c3ccc(Cl)cc3Cl)c2N)cc1 | 1.9 | -2.4 | i | -55 | -76 | -15 | 0.58 | 7 | 0%
COc1ccc(NC(=O)COC(=O)[C@@H]2CCCN2C(=O)c2cccs2)cc1 | / | 2.2 | / | / | / | / | 0.74 | -2 | 6%

Following part:
Values run as follows: MLL AF4-AF9 inh, HNF4A DNA FP, FGF22 binding, Ecoli rRNA inh, Ecoli rRNA inh OD600, Ecoli rRNA inh RFP, E coli growth, ALR inh, Vif TR-FRET
Cn1ccnc1-c1nc2ccccc2[nH]c1=O
  -7.3, -3.6, i, 10, 7, -2.1, 0.64, -6, 14%
CCCC#Cc1ccc([C@@H]2[C@@H](C#N)N(C(=O)C3CCC3)[C@H]2CO)cc1
  1.5, /, i, 1, 0, -0.1, /, /, /
COc1ccc(N2CC(C(=O)N3CCN(Cc4ccc5c(c4)OCO5)CC3)CC2=O)cc1 (centres undefined)
  1.1, 0.6, i, 3, 5, 0.2, 0.7, -11, /
Cc1cc(C)c(S(=O)(=O)N2CCCCC2CCNC(=O)C(=O)NCc2ccccn2)c(C)c1 (centres undefined)
  0.0, 1.9, i, -6, -15, 2.7, 0.7, -2, 0%
CCc1cc2c(-c3ccccc3)cc(=O)oc2cc1OCC(=O)NCC1CCC(C(=O)O)CC1 (centres undefined)
  -13, 2.9, i, /, /, /, 0.73, /, /
O=C(COc1ccc(Cl)cc1)Nc1cccc(S(=O)(=O)NCc2ccco2)c1
  3.1, 1.6, i, -31, -48, -6.8, 0.68, -1, 8%
O=C(CN1C(=O)NC2(CCCCC2)C1=O)Oc1ccc2ccc(=O)oc2c1
  -1.3, 2.0, i, /, /, /, 0.69, 1, -4%
Cc1ccc2nc(-c3ccncc3)cc(C(=O)N3CCOCC3)c2c1
  /, -2.4, /, /, /, /, /, -18, 1%
COc1ccc(-n2c3c(cc(C(=O)NNc4ccccc4)c2=O)C(=O)CC(C)(C)C3)cc1
  2.3, 2.5, i, 3, 6, 0.0, 0.7, -9, -4%
Cc1ccccc1-c1ccc([C@@H]2[C@@H](CO)N3CCCCN(C(=O)Nc4ccccc4)C[C@@H]23)cc1
  -3.6, /, i, -45, -53, -1.5, /, /, /
CCC(=O)Nc1cccc(NC(=S)NC(=O)c2cccs2)c1
  /, -0.6, /, /, /, /, 0.72, 45, -1%
Cc1nnc(NC(=O)c2c(F)c(F)c(F)c(F)c2F)s1
  /, -9.9, /, /, /, /, 0.66, -7, ?
CC1CCC(NC(=O)c2ccc(NC3=NC4CS(=O)(=O)CC4S3)cc2)CC1 (centres undefined)
  0.4, 3.6, i, 6, 2, -5.6, 0.71, -4, /
CC1CCN(c2c(NCC3CCC(C(=O)N4CCc5ccccc5C4)CC3)c(=O)c2=O)CC1 (centres undefined)
  2.4, 0.0, i, -14, -16, -1.1, 0.7, 0, -4%
CC/C(O)=C1\C(=O)CC(C)(C)CC1=Nc1ccccc1C
  /, 0.1, /, /, /, /, 0.67, -34, -4%
CCN(CC)C(=O)CSc1nnc2sc3ccccc3n12
  -7.0, 2.6, i, 1, -2, -0.4, 0.71, -7, 0%
O=C1C2C3c4ccccc4C(Br)(c4ccccc43)C2C(=O)N1c1ccccc1O (centres undefined)
  /, 1.6, /, /, /, /, 0.66, 24, 6%
N#CC1(NC(=O)CN2C(=O)NC3(CCCCCC3)C2=O)CCCCC1
  2.0, 3.9, i, 1, 3, -1.6, 0.7, 3, -3%
CCC(C)NC(=O)CCc1c(C)nc2nc(-c3cc(OC)cc(OC)c3)nn2c1C (centres undefined)
  /, 0.6, /, /, /, /, 0.72, /, 15%
COc1ccccc1C#Cc1ccc2c(c1)O[C@@H](CN(C)Cc1cccnc1)[C@@H](C)CN([C@H](C)CO)S2(=O)=O
  4.8, /, i, -5, -6, 9.2, /, /, /
Cc1ccc(CNC(=O)Cn2cncn2)cc1
  /, 2.7, /, /, /, /, 0.76, -3, 8%
CCOC(=O)c1csc(NC(=O)CN2CCOCC2)n1
  -2.1, -1.0, i, 6, 10, 0.1, 0.62, -2, -9%
Cn1cc(CCC(=O)N2CCCC(C(=O)c3cccc4ccccc34)C2)cn1 (centres undefined)
  -1.2, 3.3, i, -10, -19, -0.9, 0.67, -19, /
Cc1ccc(C(=O)NNC(=O)c2ccc(S(=O)(=O)N3CCOCC3)cc2)cc1
  1.3, -1.7, i, 6, 10, -1.1, 0.67, 0, /
